Compound activity (PubChem)
eIF4H FP inh = inhibitors of RNA binding by human eIF4H. Q15056. eIF4H fluorescence polarization binding assay. inhibition, % at 35 µM. hit rate 0.94% among 290,000. AID 2012;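 active means 50% or more with normal probe brightness, or confirmed in later tests; inconclusive means above 50% with abnormal brightness, or retests that disagree; inactive means below 50% or failed in later tests; about a fifth of its hits are not listed in these tables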;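 further: calls also rest on retests at 20 µM and on dose response follow-up; 0% = protein and probe with vehicle and 100% = probe without protein; strong numbers were not always called active; many hits fall short of the cut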
CSC inhib = cancer stem cell inhibition; cancer stem cell-like cells viability, luminescence; inhibition, % at 7.5 µM; hit rate 1.1% among 300,000; AID 2717;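 active means mean at 75% or more and at least half the replicates too; inconclusive means mean and replicates disagree; tested in HMLE shEcad cells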;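 further: 0% = median of negative and 100% = median of positive control wells; the first replicate is given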
PABP FP inh = blocks human PABP binding to poly(A) RNA. P11940. fluorescence polarization. inhibition, % at 35 µM. hit rate 1% among 290,000;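 active means 50% or more with normal probe brightness, or confirmed in later tests; inconclusive means above 50% with abnormal brightness, or retests that disagree; inactive means below 50% or failed in later tests; about a fifth of its hits are not listed in these tables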;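 further: calls also rest on retests at 20 µM and on dose response follow-up; controls were probe without protein and protein plus probe with vehicle; some compounds called inactive have numbers as strong as hits; many hits fall short of the cut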
Target sequence (P11940 whole entry, looked up): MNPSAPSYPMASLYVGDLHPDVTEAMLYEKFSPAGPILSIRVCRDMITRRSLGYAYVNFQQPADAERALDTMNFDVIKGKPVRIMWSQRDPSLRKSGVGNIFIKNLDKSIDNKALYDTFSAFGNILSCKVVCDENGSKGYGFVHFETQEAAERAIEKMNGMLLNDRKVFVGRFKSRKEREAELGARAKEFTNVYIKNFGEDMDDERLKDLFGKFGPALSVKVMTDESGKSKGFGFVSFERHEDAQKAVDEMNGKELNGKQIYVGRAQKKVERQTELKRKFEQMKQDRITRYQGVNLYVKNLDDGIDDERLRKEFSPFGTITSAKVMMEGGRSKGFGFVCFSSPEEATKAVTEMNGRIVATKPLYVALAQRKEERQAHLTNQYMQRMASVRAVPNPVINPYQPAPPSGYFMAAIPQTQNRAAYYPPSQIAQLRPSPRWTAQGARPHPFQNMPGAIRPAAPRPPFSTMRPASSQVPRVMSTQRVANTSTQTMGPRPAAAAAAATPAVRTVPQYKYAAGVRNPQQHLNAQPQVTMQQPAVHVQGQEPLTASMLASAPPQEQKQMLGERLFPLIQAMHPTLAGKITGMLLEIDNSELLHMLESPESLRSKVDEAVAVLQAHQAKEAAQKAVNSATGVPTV
Yeast UUG start = modulators of start codon recognition fidelity in yeast; AID 602363; S. cerevisiae UUG-firefly luciferase reporter, luminescence/redox ratio; hit rate 0.13% among 350,000; activity score, % at 18.7 µM;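 active means replicate mean at a twofold rise or more, about +100% in these data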;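 further: firefly luciferase made from a UUG start codon reports start codon fidelity; reporter light over untreated wells divided by growth signal over untreated wells; some hits fall short of that in this replicate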
Env fusion inh = blocks HIV Env-driven cell-cell fusion. inhibition, % at 12.3 µM. hit rate 1.1% among 360,000. HeLa-JRFL Env/CEM21 cell fusion, luciferase;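 active means mean replicate inhibition score of at least 50 and every replicate individually at or above 50; inconclusive means only one of the two criteria met; inactive means mean below 50 and not all replicates reaching 50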;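 further: 0% = plate neutral controls and 100% = maraviroc near 300 nM; one replicate is shown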
MT1-MMP act inh = inhibitors of human MT1-MMP activation; hit rate 0.061% among 360,000; HT1080 RFP-PRO-GFP cells, GFP/RFP ratio fluorescence, overnight; percent of plate control window, DMSO zero; P50281; GFP/RFP ratio change, % at 20 µM;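 active means GFP/RFP ratio change of at least 30% with cell ATP level not reduced by more than half and red fluorescence within 50% of control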; further: strong numbers were not always called active
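Test system: HT1080 cells expressing an RFP-PRO-GFP fluorescent reporter construct / Compound dosing: single-point 20 µM compound, 1% DMSO / Schedule: cells overnight before dosing, compound overnight, 37 °C, 5% CO2 / Evaluation: GFP/RFP fluorescence ratio / Control set: DMSO and RFP-L50D-GFP cell wells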
Rce1 inhib = blocks yeast Ras-converting enzyme. Q03530. yeast membranes, quenched prenylated peptide cleavage fluorescence. calls only. hit rate 0.27% among 290,000. AID 2563;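 active means fall in fluorescence gain of 50% or more versus controls, with final raw signal at or below 3038400; inconclusive means same 50% fall but final raw signal above 3038400; inactive means fall in fluorescence gain under 50%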;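 further: plate controls were neutral control wells for no effect and wells lacking membranes for full effect; tested at 10 µM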
Target sequence (Q03530 whole entry, looked up): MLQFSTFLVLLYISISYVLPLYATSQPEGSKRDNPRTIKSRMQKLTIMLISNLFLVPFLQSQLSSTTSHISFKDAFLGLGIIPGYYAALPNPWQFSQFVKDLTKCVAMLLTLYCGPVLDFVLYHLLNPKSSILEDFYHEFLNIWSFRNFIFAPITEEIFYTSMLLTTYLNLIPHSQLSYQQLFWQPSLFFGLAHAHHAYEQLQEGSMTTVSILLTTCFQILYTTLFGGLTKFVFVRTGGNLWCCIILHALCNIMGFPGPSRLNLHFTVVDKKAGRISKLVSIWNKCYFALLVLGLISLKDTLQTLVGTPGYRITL
MT1-MMP act inh RFP = also measured in MT1-MMP act inh; calls as there; RFP signal change, %; measured here: RFP expression control read;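 0 = vehicle wells; hits needed this value within 50% of zero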
Numbers without * were called inactive; i = inactive; ? = inconclusive; . = not tested or not shown; + = active, no number; & = joins results of further samples. Only part of the results is shown, so the mix of outcomes need not match the whole.

SMILES	eIF4H FP inh	CSC inhib	PABP FP inh	Yeast UUG start	Env fusion inh	MT1-MMP act inh	MT1-MMP act inh RFP	Rce1 inhib
CCOC(=O)C1CCN(C(=O)CN2C(=O)NC(C)(c3ccc4cc(OC)ccc4c3)C2=O)CC1 (stereo not drawn)	.	-10	.	-10	-12	4	-11	.
CS(=O)(=O)Nc1ccc(C(=O)Nc2ccc3c(c2)OCO3)cc1	-10	.	-4	.	-7	3	-2	i
COc1ccc(C(=O)c2cc3cccc(OC)c3o2)cc1	-5	-7	-14	.	-57	4	1	i
COc1ccc(C(=O)NCCc2c[nH]c3ccccc23)cc1OC	0	-7	6	-3	4	1	-1	.
COC(=O)C1=C(C)N=C2SC(C)C(=O)N2C1/C=C/c1ccccc1 (stereo not drawn)	-1	-2	-8	-13	-9	-30	-28	i
NC(N)=NC(N)=Nc1ccc(O)cc1	4	-3	18	-19	-3	0	11	i
COc1ccc(N2CCN(S(=O)(=O)CCNC(=O)c3cc(=O)c4ccccc4o3)CC2)cc1	-7	-3	5	-4	3	.	.	i
CN(C)C(CNC(=O)c1ccc(NS(=O)(=O)c2ccc(F)c(F)c2)cc1)c1ccccc1 (stereo not drawn)	.	-6	.	-3	-22	-1	-9	i
COc1ccc(C2=NOC(C(=O)O)C2)cc1 (stereo not drawn)	-7	-4	-2	-8	.	-3	1	i
Cc1c(F)cccc1NS(=O)(=O)c1ccc2c(c1)NC(=O)CO2	-3	1	4	.	17	0	-2	i
CN(C)c1ccc(NC(=O)CC(NCc2ccccn2)C(=O)O)cc1 (stereo not drawn)	11	-12	-1	-22	.	9	12	i
CC(=O)Oc1ccc(/C=N/NC2=NS(=O)(=O)c3ccccc32)cc1	-3	-5	10	-25	-2	-4	1	i
CCOc1cc(CNn2nnnc2N)cc(Cl)c1OCC(=O)NC(C)(C)C	-6	0	6	2	-6	8	-2	i
N#Cc1cc(Cl)c(N2CCOCC2)cc1C#N	-2	-3	-1	-13	.	5	5	i
Cc1cc(C)c2c(=O)n3c(nc2c1)C(Cc1ccccc1)NC(=O)c1cc2ccccc2cc1-3 (stereo not drawn)	.	.	.	-25	-227	2	0	.
CC1=CC(C)C(C(=O)O)C(C(=O)N2CCN(C)CC2)C1 (stereo not drawn)	-6	-12	-1	.	14	-1	1	i
Cc1occc1-c1nnc(SCC(=O)N(C)CCC#N)n1N	3	-18	2	-4	.	-2	4	i
Cc1cccc(NC(=O)CN2CCc3cc4c(cc3C2)OCCCO4)c1	-3	1	-6	9	-3	-1	3	i
CN(/N=C/c1ccc(C(C)(C)C)cc1)C1=NCCN1	-8	12	0	.	0	-3	0	i
CSc1nsc(SCC(=O)NC2CCCCC2)n1	2	-11	12	-8	.	0	2	i
Cc1ccc(N(C(=O)c2csnn2)C(C(=O)NC2CCCC2)c2ccccn2)c(C)c1 (stereo not drawn)	-7	22	3	-1	13	2	7	i
CC(=O)NCCOc1nc(N(C)C)nc(N(C)C)n1	-12	-3	-12	-21	-68	3	1	i
COc1ccc(-c2nc3ccccc3c(=O)n2NC(=O)c2cccnc2Cl)cc1OC	-4	4	10	.	0	-2	3	i
CN(Cc1nccn1C)C(=O)CCc1nnc(CCC2CCCCC2)o1	-1	-10	-4	.	11	8	4	i
CC(C)OC(=O)N(C)C[C@@H]1OCc2cnnn2CCCC(=O)N([C@@H](C)CO)C[C@H]1C	.	.	.	-1&1	-3	0	2	.
CN1CCCC1(C)C(=O)NCc1ccc(F)cc1Cl (stereo not drawn)	.	.	.	-10	-67	2	4	.
C/C(=N\NC(=O)Cc1ccccc1Cl)c1cccnc1	2	1	1	-11	3	-2	0	i
NC(=O)CCCC1=NS(=O)(=O)c2ccccc2N1	-6	0	-8	.	-36	-1	5	i
COc1cccc(C2=NOC(C(=O)NC3CCCCC3)C2)c1 (stereo not drawn)	5	-12	3	-7	-25	1	-2	i
CCNS(=O)(=O)c1ccc(NC(=O)Nc2ccc3c(c2)OCO3)cc1	4	2	0	-4	-21	2	0	i
COc1ccc(N2CCN(C(CNC(=O)c3ccc4c(c3)OCO4)c3cccnc3)CC2)cc1 (stereo not drawn)	-3	1	-2	-7	.	1	4	i
Cc1cccc(N2C(=O)C3CC3C2=O)c1 (stereo not drawn)	-11	-9	2	.	3	1	0	i
Cn1c(=O)c2c(ncn2CC(=O)OCC(=O)Nc2cccc(Cl)c2)n(C)c1=O	-6	-16	0	.	9	4	6	i
N/C(CS(=O)(=O)c1ccccn1)=N\OC(=O)c1ccc(Cl)cc1	-6	-7	13	.	-1	1	4	i
COc1ncccc1-c1nnn(-c2ccc(Cl)c(Cl)c2)n1	-7	2	-4	-16	-120	-1	-2	i
COc1ccc(-n2c(C)cc(/C=C3\C(=N)N4N=C(CC(=O)N5CCOCC5)SC4=NC3=O)c2C)cc1	25	7	13	-21	-24	-11	-3	i
O=C(O)C1(c2ccccc2)CCN(S(=O)(=O)c2ccc(F)c(F)c2)CC1	-8	-1	0	-12	-1	-5	-3	i
CC1CCCCN1S(=O)(=O)c1ccc(C(=O)N(CCCN(C)C)c2nc3cc4c(cc3s2)OCO4)cc1 (stereo not drawn)	1	-10	7	3	1	-1	0	i
COc1ccc(NC(=O)c2cccc(S(=O)(=O)Nc3ccc(Br)cc3)c2)cn1	24	20	1	.	41	-8	-35	i
COC(=O)C1=CN(C2CC2)C=C(C(=O)OC)C1c1ccc(C(=O)OC)cc1	0	0	2	-4	-117	8	3	i
CCOC(=O)CNC(=O)COc1ccc(Cl)cc1Br	5	-10	7	-21	-26	6	-1	i
CN(C)C(=O)CNC(=O)CN1C(=O)NC2(CCCc3sccc32)C1=O (stereo not drawn)	-10	-24	-3	-6	-5	3	2	i
O=C1CC(SCCO)C(=O)N1c1ccc(Oc2ccccc2)cc1 (stereo not drawn)	-2	-1	31	-23	.	-1	-1	i
CC1CCCC(C)N1C(=O)COC(=O)CCc1nc2ccccc2c(=O)[nH]1 (stereo not drawn)	4	-15	12	.	-32	5	8	i
COC(=O)c1ccc(N(CC(=O)NC2CCCCC2)C(=O)CNC(=O)c2ccco2)cc1	2	6	19	-24	-13	-2	-1	i
CC(C)Oc1cc(S(=O)(=O)N2CCCCC2)ccc1N	-9	-14	18	5	18	3	-7	i
O=C(NCCCn1ccnc1)C(=O)NCC(c1cccnc1)N1CCN(c2ccc(F)cc2)CC1 (stereo not drawn)	2	16	0	-18	.	-5	0	i
CCOC(=O)C(=NC1CCS(=O)(=O)C1)NNc1cc(Cl)ccc1Cl (stereo not drawn)	-8	1	-5	7	11	-3	-1	i
O=c1ccn(-c2ccccc2)[nH]1	-1	1	?	-5	-11	1	-1	i
CCOc1ccc2oc(=O)cc(CN3CCN(C(=O)c4ccco4)CC3)c2c1	-2	-17	-7	-13	.	-1	3	i
Cc1cc2ccccn2c1C(=O)Nc1cccc(Cl)c1	2	4	6	.	-4	-11	-1	i
CC(=O)C1=C(C)NC(SCc2cccc([N+](=O)[O-])c2)=C(C#N)C1c1ccco1 (stereo not drawn)	1	18	6	-9	.	-4	-10	i
CC(C)(C)NC(=O)C[n+]1ccc(C(N)=O)cc1	3	7	-12	-12	9	1	6	i
O=[N+]([O-])c1ccc(NC(=S)NCC(c2cccnc2)N2CCOCC2)cc1 (stereo not drawn)	-5	-4	2	.	-5	-2	-1	i
Cc1ccnc2nc(C(=O)NC3CCCc4ccccc43)nn12 (stereo not drawn)	-2	31	6	.	7	1	-1	i
CCOC(=O)C1CCN(C(=O)COc2ccc(Cl)cc2C)CC1	-3	.	-6	.	.	0	2	i
CC1CCN(CCCn2c(=S)[nH]c3ccccc3c2=O)CC1	-6	.	9	-8	.	0	5	i
CCN(CC(=O)Nc1ccc(NC(C)=O)cc1)C(=O)c1ccccc1SCc1c(C)noc1C	.	-5	.	15	-12	-1	1	i
Cc1cc(NC(=O)CSc2ncccn2)no1	0	.	-16	-11	.	4	3	i
CC(C)=CCN1CCN(Cc2cnc(N3CCOCC3)s2)CC1CCO (stereo not drawn)	4	-2	3	3	-5	4	7	i

Next part.
SMILES	eIF4H FP inh	CSC inhib	PABP FP inh	Yeast UUG start	Env fusion inh	MT1-MMP act inh	MT1-MMP act inh RFP	Rce1 inhib
O=C(NCCC(=O)N1CCN(C(=O)c2ccco2)CC1)c1ccccc1Cl	.	.	.	-15	-5	-3	-2	.
O=S(=O)(c1ccccc1)c1ncc(C(F)(F)F)cc1O	4	10	-2	6	0	1	7	i
Cc1cc(C)n2nc(SCC(=O)Nc3ccc(F)c(F)c3F)nc2n1	.	-19	.	-13	.	2	0	.
CCc1nnc2n1N=C(c1ccc(Cl)cc1)CS2	-10	-3	-2	-17	2	0	-4	i
COc1ccc(CCN2CC(C(=O)NCCc3cccnc3)CCC2=O)cc1 (stereo not drawn)	-9	-7	-2	-19	-17	-3	1	i
CC(Oc1ccccc1)C(=O)Nc1ccc(F)c(S(=O)(=O)N2CCOCC2)c1 (stereo not drawn)	.	.	.	-9	3	-4	-2	.
CCSc1nc2c(c(-c3ccc(C)o3)c1C#N)CCCC2	1	3	-3	-22	30	-8	-6	i
Cc1ccccc1NS(=O)(=O)c1ccc2c(c1)NC(=O)CO2	6	4	3	.	4	1	6	i
Clc1ccc(OCc2cc(-c3ccccc3)no2)cc1Cl	2	.	-7	.	.	5	-4	i
Cn1c(N2CCN(C(c3ccccc3)c3ccccc3)CC2)nc2c1c(=O)[nH]c(=O)n2C	6	19	12	-15	13	-8	4	i
CN1CCC(N(C)C(=O)CCc2nc3ccccc3n2-c2ccccc2)CC1	9	-10	-1	.	-8	0	4	i
Cn1c(=O)oc2cc(S(=O)(=O)Nc3ccccc3O)ccc21	-16	-9	8	11	-1	-2	0	i
CCn1c(=O)c(C(=O)NCCNCCO)c(O)c2ccccc21	0	-5	17	-3	.	3	3	i
Cc1ccc(N2C(=O)CN=C2Nc2nc(C)cc(C)n2)cc1	-2	-12	-15	.	-3	-3	3	i
CCOc1ccccc1-n1nnnc1SCC(=O)N1CCCC1=O	.	-18	.	-7	.	-1	3	.
COc1ccc(Nc2nc(N)nc(CSC(=S)N3CCC(C)CC3)n2)cc1	-7	24	0	-19	13	1	0	i
CCN(CC)CCCNc1cc(C)nc2cc(-c3cccs3)nn12	-3	6	0	.	12	-5	2	+
CCNC(=S)Nc1cccc([N+](=O)[O-])c1	2	15	13	.	.	.	.	i
Cc1cc(C(=O)NCCN2C(=O)S/C(=C\c3cccs3)C2=O)ccc1[N+](=O)[O-]	-4	-5	-7	.	-7	6	-1	.
CNc1ccc(-c2cccc(C(C)=O)c2)cn1	.	.	.	-19	-4	0	3	.
CCOC(=O)C1=CN(C)CCC1=O	.	.	.	-3	17	2	6	.
Cc1cc(C)n(C(=O)CNC(=O)CCc2ccccc2)n1	-11	-10	-7	-19	-27	-4	-4	i
Cc1ccc(C(=O)COC(=O)c2cccs2)cc1	-1	-13	-2	-87	-151	4	4	i
O=C(Nc1cccc(O)c1)c1ccc(C(F)(F)F)cc1	20	19	14	.	-38	6	-1	i

An excerpt from above in order of the Env fusion inh value, low to high:
mol | Yeast UUG start | Env fusion inh | MT1-MMP act inh | MT1-MMP act inh RFP | Rce1 inhib
CC(Oc1ccccc1)C(=O)Nc1ccc(F)c(S(=O)(=O)N2CCOCC2)c1 (stereo not drawn) | -9 | 3 | -4 | -2 | .
Cc1ccnc2nc(C(=O)NC3CCCc4ccccc43)nn12 (stereo not drawn) | . | 7 | 1 | -1 | i
CN(Cc1nccn1C)C(=O)CCc1nnc(CCC2CCCCC2)o1 | . | 11 | 8 | 4 | i
